# Source: PubChem (Broad Institute)
# UUG fidelity: modulators of yeast start codon fidelity, primary screen, whole organism, S. cerevisiae, single point, plate reader; S. cerevisiae UUG-firefly luciferase reporter, luminescence/redox ratio; activity score, % at 18.7 µM; hit rate 0.13% among 350,000; AID 602363, 2012;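 active means replicate mean at a twofold rise or more, about +100% in these data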;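 further: firefly luciferase made from a UUG start codon reports start codon fidelity; reporter light over untreated wells divided by growth signal over untreated wells; some hits fall short of that in this replicate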
# Env fusion inh: inhibitors of HIV-1 Env-driven cell-cell fusion, primary screen, HeLa-JRFL effector, CEM21 target cells, luciferase; inhibition, % at 12.3 µM; hit rate 1.1% among 360,000;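 active means mean replicate inhibition score of at least 50 and every replicate individually at or above 50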;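 further: 0% = plate neutral controls and 100% = maraviroc near 300 nM; one replicate is shown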
# * = called active by the depositor; [ ] = remark or other dose. These rows are one share of the data; count on the stated rates, not on these rows.
# The opening 5 compounds, to show the layout:
# The line under a structure holds: UUG fidelity, Env fusion inh
COCC(=O)Nc1ccc2c(c1)[C@@H]1C[C@@H](CC(=O)NCc3ccc(Cl)cc3)O[C@H](CO)[C@@H]1O2
→ -4.5, 7.9[16.7 µM]
C[C@H]1CCCCO[C@@H](CN(C)S(=O)(=O)c2cccs2)[C@@H](C)CN([C@@H](C)CO)C(=O)c2cc(NS(=O)(=O)c3ccc(Cl)cc3)ccc2O1
→ -10.3, 26.7[16.7 µM]
Cc1noc(C)c1NC(=O)Nc1ccc2c(c1)C(=O)N([C@H](C)CO)C[C@H](C)[C@@H](CN(C)Cc1ccc3c(c1)OCO3)OCCCC[C@@H](C)O2
→ -5.1, -13.2[16.7 µM]
COCC(=O)N1[C@H](CO)[C@@H](c2ccc(C3=CCCCC3)cc2)[C@@H]1C#N
→ 6.2, -8.2[16.7 µM]
C[C@H]1CN([C@@H](C)CO)S(=O)(=O)c2ccc(-c3cccc(F)c3)cc2O[C@@H]1CN(C)S(=O)(=O)c1ccc(F)cc1
→ -21.0, 27.1[16.7 µM]

# All compounds of this part, repeating the preview:
# The line under a structure holds: UUG fidelity, Env fusion inh
COCC(=O)Nc1ccc2c(c1)[C@@H]1C[C@@H](CC(=O)NCc3ccc(Cl)cc3)O[C@H](CO)[C@@H]1O2
→ -4.5, 7.9[16.7 µM]
C[C@H]1CCCCO[C@@H](CN(C)S(=O)(=O)c2cccs2)[C@@H](C)CN([C@@H](C)CO)C(=O)c2cc(NS(=O)(=O)c3ccc(Cl)cc3)ccc2O1
→ -10.3, 26.7[16.7 µM]
Cc1noc(C)c1NC(=O)Nc1ccc2c(c1)C(=O)N([C@H](C)CO)C[C@H](C)[C@@H](CN(C)Cc1ccc3c(c1)OCO3)OCCCC[C@@H](C)O2
→ -5.1, -13.2[16.7 µM]
COCC(=O)N1[C@H](CO)[C@@H](c2ccc(C3=CCCCC3)cc2)[C@@H]1C#N
→ 6.2, -8.2[16.7 µM]
C[C@H]1CN([C@@H](C)CO)S(=O)(=O)c2ccc(-c3cccc(F)c3)cc2O[C@@H]1CN(C)S(=O)(=O)c1ccc(F)cc1
→ -21.0, 27.1[16.7 µM]
COc1cccc(NC(=O)N(C)C[C@@H]2Oc3cc(C#Cc4ccccc4)ccc3S(=O)(=O)N([C@H](C)CO)C[C@H]2C)c1
→ 0.8, -34.0[16.7 µM]
O=C(N[C@@H]1CC[C@@H](CCNC(=O)C2CCC2)O[C@H]1CO)c1ccccn1
→ 1.1, 13.8[16.7 µM]
C[C@@H]1CN([C@@H](C)CO)C(=O)Cc2cc(NC(=O)C3CCCCC3)ccc2O[C@@H]1CN(C)S(=O)(=O)c1cccs1
→ 3.3, 21.5[16.7 µM]
C[C@@H]1CN([C@@H](C)CO)C(=O)c2cc(NC(=O)c3ccncc3)ccc2O[C@@H](C)CCCCO[C@@H]1CN(C)S(=O)(=O)c1ccc(F)cc1
→ 20.5, 9.6[16.7 µM]
C[C@H]1CN([C@@H](C)CO)C(=O)c2cc(C#Cc3ccccn3)cnc2O[C@@H]1CN(C)C(=O)c1cnccn1
→ 33.3, -14.4[16.7 µM]
C[C@H]1CN([C@@H](C)CO)C(=O)Cc2cc(NC(=O)C3CC3)ccc2O[C@H]1CN(C)Cc1ccccc1
→ -23.0, -22.7[16.7 µM]
COc1ccc(S(=O)(=O)N(C)C[C@@H]2Oc3ccc(NC(=O)C4CCCCC4)cc3CC(=O)N([C@@H](C)CO)C[C@@H]2C)cc1
→ 2.4, 65.7*[16.7 µM]
O=C(C[C@@H]1CC[C@H](NC(=O)c2cccnc2)[C@H](CO)O1)NCc1ccncn1
→ -21.1, 0.3[16.7 µM]
COc1cccc(S(=O)(=O)N[C@H]2CC[C@@H](CCn3cc(-c4ccccc4OC)nn3)O[C@@H]2CO)c1
→ 4.9, 2.6[16.7 µM]
COc1ccccc1CNC(=O)C[C@@H]1C[C@@H]2c3cc(NC(=O)Nc4ccccc4F)ccc3O[C@@H]2[C@@H](CO)O1
→ -9.4, 18.6[16.7 µM]
CCCN(C)C[C@@H]1OCCCC[C@H](C)Oc2ccc(NC(=O)c3ccccc3)cc2C(=O)N([C@@H](C)CO)C[C@@H]1C
→ 4.6, -31.4[16.7 µM]
COc1ccc(S(=O)(=O)N(C)C[C@@H]2OCCCC[C@@H](C)Oc3ccc(NS(C)(=O)=O)cc3C(=O)N([C@H](C)CO)C[C@@H]2C)cc1
→ 4.6, -9.0[16.7 µM]
COCC(=O)N[C@@H]1CC[C@@H](CC(=O)N2CCCCC2)O[C@H]1CO
→ -13.9, -4.3[16.7 µM]
COC(=O)C[C@@H]1C=C[C@@H](NC(=O)c2ccccc2)[C@@H](CO)O1
→ -9.4, 10.5[16.7 µM]
COc1ccc(S(=O)(=O)Nc2ccc3c(c2)C(=O)N([C@@H](C)CO)C[C@@H](C)[C@H](CN(C)CC2CCCCC2)OCCCC[C@@H](C)O3)cc1
→ 18.8, -15.7[16.7 µM]
C[C@@H]1CN([C@H](C)CO)C(=O)Cc2cc(NC(=O)CCN3CCOCC3)ccc2O[C@H]1CN(C)C(=O)Nc1ccc(C(F)(F)F)cc1
→ -1.7, -14.1[16.7 µM]
Cc1noc(C)c1S(=O)(=O)Nc1ccc2c(c1)C(=O)N([C@@H](C)CO)C[C@@H](C)[C@H](CN(C)C(=O)Nc1ccccc1)OCCCC[C@@H](C)O2
→ -2.5, -19.7[16.7 µM]
O=c1n(-c2ccccc2)c(=O)n2n1CC(COc1ccccc1)=C1[C@@H](CCc3ccccc3)OB(O)C[C@@H]12
→ -1.5, -119.9[16.7 µM]
C[C@@H]1CCCCO[C@@H](CN(C)C)[C@H](C)CN([C@@H](C)CO)C(=O)c2cc(NC(=O)Nc3cccc4ccccc34)ccc2O1
→ 6.7, 9.6[16.7 µM]
CC(C)NC(=O)Nc1ccc2c(c1)C(=O)N([C@@H](C)CO)C[C@H](C)[C@@H](CN(C)S(=O)(=O)c1cn(C)cn1)OCCCC[C@H](C)O2
→ -10.4, 12.1[16.7 µM]
C[C@@H]1CN([C@H](C)CO)C(=O)c2cc(NS(=O)(=O)c3ccccc3)ccc2O[C@@H](C)CCCCO[C@H]1CN(C)Cc1ccc(C(F)(F)F)cc1
→ 4.3, 10.1[16.7 µM]
C[C@H](CO)N1C[C@H](C)[C@@H](CN(C)CC2CCCCC2)Oc2ccc(NC(=O)CCCN(C)C)cc2CC1=O
→ -17.7, -15.6[16.7 µM]
CO[C@H]1CN(C)C(=O)c2ccc(NC(=O)c3ccc(F)cc3)cc2OC[C@@H](C)N(C(=O)c2ccc(F)cc2)C[C@H]1C
→ 23.6, -7.4[16.7 µM]
CCC(=O)N[C@@H]1CC[C@H](CC(=O)NCc2ccc(OC)cc2)O[C@@H]1CO
→ 3.1, -11.5[16.7 µM]
COc1ccccc1CNC(=O)C[C@H]1CC[C@H](NC(C)=O)[C@@H](CO)O1
→ -8.8, -19.0[16.7 µM]
COC(=O)C[C@H]1C[C@@H]2c3cc(NC(=O)Nc4ccc(C(F)(F)F)cc4)ccc3O[C@@H]2[C@H](CO)O1
→ 1.1, 1.7[16.7 µM]
C[C@H](CO)N1C[C@H](C)[C@@H](CN(C)C(=O)C2CC2)Oc2cc(-c3ccccc3F)ccc2S1(=O)=O
→ -0.6, 36.8[16.7 µM]
CCCN(C)C[C@H]1Oc2ncc(-c3cccc(C#N)c3)cc2C(=O)N([C@@H](C)CO)C[C@@H]1C
→ -17.3, 4.5[16.7 µM]
O=C(Nc1ccc(F)cc1)N[C@@H]1CC[C@H](CCn2cc(-c3ccccc3F)nn2)O[C@H]1CO
→ 17.0, -19.2[16.7 µM]
COc1ccc(-c2ccc3c(c2)O[C@@H](CN(C)C(=O)c2ccccc2F)[C@H](C)CN([C@H](C)CO)S3(=O)=O)cc1
→ 20.3, 25.7[16.7 µM]
C[C@@H]1CCCCO[C@@H](CN(C)CC2CCCCC2)[C@H](C)CN([C@H](C)CO)C(=O)c2cc(NC(=O)CCC(F)(F)F)ccc2O1
→ -1.5, -0.4[16.7 µM]
C[C@H]1CN([C@@H](C)CO)C(=O)c2cc(NS(=O)(=O)c3ccc(Cl)cc3)ccc2O[C@@H]1CN(C)Cc1ccncc1
→ -4.0, 2.2[16.7 µM]
O=C(NCC[C@H]1CC[C@@H](NC(=O)c2ccncc2)[C@@H](CO)O1)Nc1ccc(Cl)cc1
→ -9.7, 1.6[16.7 µM]
CN(C)C(=O)C[C@@H]1C[C@@H]2c3cc(NS(C)(=O)=O)ccc3O[C@@H]2[C@@H](CO)O1
→ 1.3, 9.5[16.7 µM]
COc1ccccc1-c1cnc2c(c1)C(=O)N([C@@H](C)CO)C[C@H](C)[C@@H](CN(C)C(=O)CN(C)C)O2
→ -3.3, -20.3[16.7 µM]
C[C@H]1CN([C@@H](C)CO)C(=O)c2cccc(NC(=O)Nc3ccccc3)c2O[C@@H]1CN(C)C(=O)Nc1ccc(C(F)(F)F)cc1
→ 10.0, 2.6[16.7 µM]
COc1ccccc1-c1cnc2c(c1)C(=O)N([C@H](C)CO)C[C@@H](C)[C@H](CN(C)Cc1cccc(F)c1)O2
→ 8.8, 16.7[16.7 µM]
C[C@@H]1CCCCO[C@@H](CN(C)S(=O)(=O)c2cccs2)[C@@H](C)CN([C@H](C)CO)C(=O)c2cc(NS(=O)(=O)c3cn(C)cn3)ccc2O1
→ 22.0, -32.5[16.7 µM]
COCC#Cc1ccc2c(c1)O[C@@H](CN(C)Cc1cccnc1)[C@@H](C)CN([C@H](C)CO)S2(=O)=O
→ -11.0, 9.0[16.7 µM]
CCCNC(=O)N(C)C[C@H]1Oc2cc(-c3ccccc3)ccc2S(=O)(=O)N([C@@H](C)CO)C[C@@H]1C
→ -3.4, 5.3[16.7 µM]
O=C(C[C@H]1C=C[C@@H](NC(=O)Cc2ccccn2)[C@H](CO)O1)NCCCN1CCOCC1
→ -7.3, 20.6[16.7 µM]
CCCNC(=O)C[C@H]1C[C@H]2c3cc(NS(=O)(=O)c4ccc(OC)cc4)ccc3O[C@H]2[C@H](CO)O1
→ -10.2, -35.4[16.7 µM]
CC(C)NC(=O)Nc1ccc2c(c1)C(=O)N([C@H](C)CO)C[C@@H](C)[C@@H](CN(C)S(=O)(=O)c1ccc(F)cc1)OCCCC[C@H](C)O2
→ 2.7, -11.5[16.7 µM]
CC(C)CC#Cc1cnc2c(c1)C(=O)N([C@@H](C)CO)C[C@@H](C)[C@@H](CN(C)C(=O)c1ccc3c(c1)OCO3)O2
→ 21.1, -0.4[16.7 µM]
COc1ccc(NC(=O)N(C)C[C@@H]2Oc3ncc(-c4cccnc4)cc3C(=O)N([C@@H](C)CO)C[C@@H]2C)cc1
→ -0.3, 13.1[16.7 µM]
CC(C)NC(=O)Nc1ccc2c(c1)CC(=O)N([C@H](C)CO)C[C@@H](C)[C@H](CN(C)S(=O)(=O)c1cccs1)O2
→ 1.7, -5.1[16.7 µM]
CC(=O)N(C)C[C@@H]1Oc2cc(C#CC(C)(C)O)ccc2S(=O)(=O)N([C@@H](C)CO)C[C@@H]1C
→ 1.4, -8.7[16.7 µM]
COc1ccc(NC(=O)N(C)C[C@H]2Oc3ccc(NC(=O)Nc4ccc(F)cc4)cc3CC(=O)N([C@@H](C)CO)C[C@@H]2C)cc1
→ 16.1, -0.9[16.7 µM]
CC(C)C#Cc1ccc([C@H]2[C@@H](C#N)N(C(=O)C3CCC3)[C@@H]2CO)cc1
→ -12.5, 4.7[16.7 µM]
O=C(C[C@@H]1C=C[C@@H](NC(=O)c2ccc(F)cc2)[C@H](CO)O1)NCc1ccncn1
→ -6.2, 7.6[16.7 µM]
CCC(=O)Nc1ccc2c(c1)OC[C@H](C)N(Cc1ccncc1)C[C@@H](C)[C@@H](OC)CN(C)C2=O
→ 0.1, -9.1[16.7 µM]
O=C1C[C@@](C(=O)NCC(F)(F)F)(c2ccc([N+](=O)[O-])cc2)[C@@H](c2ccc(CO)cc2I)N1C1CCCCC1
→ 2.8, 11.3[16.7 µM]
C[C@@H]1CN([C@@H](C)CO)C(=O)c2cc(C3=CCCCC3)cnc2O[C@@H]1CN(C)C(=O)CN1CCOCC1
→ -5.1, -3.8[16.7 µM]
COc1ccc(S(=O)(=O)N(C)C[C@H]2Oc3ccc(NC(=O)Nc4ccccc4)cc3CC(=O)N([C@@H](C)CO)C[C@H]2C)cc1
→ -2.4, -11.5[16.7 µM]
CCC(=O)N(C)C[C@H]1Oc2ncc(C#CCc3ccccc3)cc2C(=O)N([C@H](C)CO)C[C@H]1C
→ 7.0, 4.0[16.7 µM]

# More records
# The line under a structure holds: UUG fidelity, Env fusion inh
COc1cccc(C(=O)Nc2ccc3c(c2)C(=O)N(C)[C@H]2CC[C@@H](CC(=O)NCC4CC4)O[C@@H]2CO3)c1
→ 2.5, -1.2[16.7 µM]
Cc1noc(C)c1S(=O)(=O)Nc1ccc2c(c1)C(=O)N([C@@H](C)CO)C[C@@H](C)[C@@H](CN(C)S(=O)(=O)c1cn(C)cn1)OCCCC[C@H](C)O2
→ 14.2, 23.5[16.7 µM]
N#C[C@@H]1[C@@H](c2ccc(C#CC3(O)CCCC3)cc2)[C@@H](CO)N1C(=O)C1CCCCC1
→ 10.0, -1.5[16.7 µM]
CCCNC(=O)N(C)C[C@H]1Oc2cc(-c3cccnc3)ccc2S(=O)(=O)N([C@@H](C)CO)C[C@H]1C
→ 5.8, -5.5[16.7 µM]
CCC(=O)Nc1ccc2c(c1)C(=O)N(C)[C@H]1CC[C@@H](CC(=O)NC3Cc4ccccc4C3)O[C@H]1CO2
→ 11.0, 3.8[16.7 µM]
Cc1noc(C)c1NC(=O)Nc1ccc2c(c1)C(=O)N([C@@H](C)CO)C[C@H](C)[C@H](CN(C)C(=O)Nc1ccc(C(F)(F)F)cc1)OCCCC[C@H](C)O2
→ 3.5, 1.4[16.7 µM]
CC(C)CC#Cc1ccc2c(c1)O[C@H](CN(C)S(=O)(=O)c1ccc(F)cc1)[C@H](C)CN([C@H](C)CO)S2(=O)=O
→ -4.7, 45.1[16.7 µM]
